T cruzi repl: T. cruzi replication inhibition | T. cruzi beta-gal in NIH3T3, luminescence, 90 h | inhibition, % (no concentration beside the values) | 300,000 compounds, 1.4% hits | AID 1885;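 active = mean inhibition across valid replicates above about 55%, limit read from the data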;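 also: signal also drops with host cell toxicity which is not excluded here; 0% = plate median of DMSO wells and 100% = zero luminescence signal; higher percent means less beta-gal luminescence so fewer parasites; stock transfer was 50 nL into about 50 µL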
MLL AF4-AF9 inh: blocks AF4 peptide binding to human AF9; P42568; AlphaScreen, biotin-AF4 peptide binding to FLAG-AF9; inhibition, % at 10 µM; 350,000 compounds, 0.47% hits; AID 651704;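 active = every replicate reaching a set inhibition limit, whatever the replicate mean, cut at about 25% in these data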;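 also: 0% = plate neutral control median and 100% = total signal loss; the record names both 10 and 1 µM as test concentration; the first replicate is given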
Target sequence (P42568 whole entry, looked up): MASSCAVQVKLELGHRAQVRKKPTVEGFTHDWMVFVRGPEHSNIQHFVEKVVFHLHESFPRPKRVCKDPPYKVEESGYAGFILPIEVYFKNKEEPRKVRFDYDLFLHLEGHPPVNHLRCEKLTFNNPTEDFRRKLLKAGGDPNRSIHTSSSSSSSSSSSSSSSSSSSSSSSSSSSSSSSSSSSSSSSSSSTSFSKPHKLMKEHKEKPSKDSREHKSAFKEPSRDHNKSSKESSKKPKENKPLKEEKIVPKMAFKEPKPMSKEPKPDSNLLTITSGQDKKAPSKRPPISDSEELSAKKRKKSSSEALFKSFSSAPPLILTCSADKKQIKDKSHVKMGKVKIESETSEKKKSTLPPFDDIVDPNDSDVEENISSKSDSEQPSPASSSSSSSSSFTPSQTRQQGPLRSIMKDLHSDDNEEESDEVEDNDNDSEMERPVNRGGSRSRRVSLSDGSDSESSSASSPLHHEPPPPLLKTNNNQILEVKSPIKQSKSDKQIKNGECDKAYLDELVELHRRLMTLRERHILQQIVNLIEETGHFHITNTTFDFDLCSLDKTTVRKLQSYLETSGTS
FGF22 binding: binders of recombinant human FGF22 by thermal shift. calls only at 9.99 µM. 340,000 compounds, 1.5% hits. Q9HCT0. SYPRO orange fluorescence; percent of sucrose octasulfate shift, DMSO zero;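 active = melting point raised past a set limit in the mean and every replicate; three in four hits are not shown here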
Target sequence (Q9HCT0 whole entry, looked up): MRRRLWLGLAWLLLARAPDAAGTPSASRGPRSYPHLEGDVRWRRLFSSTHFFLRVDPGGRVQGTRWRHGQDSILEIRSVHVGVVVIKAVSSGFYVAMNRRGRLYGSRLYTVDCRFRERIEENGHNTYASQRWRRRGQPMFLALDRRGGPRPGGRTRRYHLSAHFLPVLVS
rRNA inh HTS: selective bacterial rRNA inhibition in E. coli. GFP signal change (wild-type ribosome), % (test concentration not listed). 350,000 compounds, 1.6% hits. E. coli WT GFP vs humanized-ribosome RFP mutants, fluorescence, 24 h; hits give low values; DMSO median 0, no signal -100. AID 720706;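 active = significant combined selectivity score with lowered wild-type GFP, culture density cut under 30%, mutant RFP and density less affected; inactive = any of these conditions unmet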; also: one replicate is shown; some compounds called inactive have numbers as strong as hits
UCH37 DUB inh: inhibitors of human deubiquitinating enzyme UCH37. purified proteasome/UCH37, Ub-AMC cleavage fluorescence. inhibition, % (no concentration beside the values). Q9Y5K5. 330,000 compounds, 0.33% hits;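 active = mean of two replicates above 20%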;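 also: 0% = compound-free wells with enzyme and 100% = wells lacking proteasome; stock transfer was 100 nL into about 20 µL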
Target sequence (Q9Y5K5 whole entry, looked up): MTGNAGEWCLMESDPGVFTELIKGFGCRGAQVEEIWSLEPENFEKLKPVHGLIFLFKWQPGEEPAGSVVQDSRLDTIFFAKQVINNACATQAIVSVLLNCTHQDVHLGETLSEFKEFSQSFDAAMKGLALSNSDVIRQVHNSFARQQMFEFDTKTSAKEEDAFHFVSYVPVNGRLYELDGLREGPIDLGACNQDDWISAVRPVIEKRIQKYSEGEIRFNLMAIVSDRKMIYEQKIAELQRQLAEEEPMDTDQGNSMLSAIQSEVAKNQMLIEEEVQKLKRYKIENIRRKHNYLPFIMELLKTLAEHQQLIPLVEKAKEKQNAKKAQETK
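Signal – fluorescence, ex 355 nm, em 460 nm · System – Proteasome-bound UCH37 · Input – 0.15 nM proteasome as dispensed · Timing – 30 min preincubation with enzyme, 25 min cleavage at room temperature · Read-out basis – percent inhibition of cleavage signal versus uninhibited and no-proteasome wells · Medium – Tris-HCl pH 7.4 with ATP-MgCl2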
Bfl-1 A1 inh: inhibitors of the anti-apoptotic protein A1, read as caspase activation; caspase activation, % (test concentration not listed); 330,000 compounds, 0.066% hits; MEF A1-2A-BIM cells, Caspase-Glo 3/7 luminescence, 3 h; percent of clofoctol response, vehicle zero; AID 2462;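 active = over half of replicate activation scores above 10%, or exactly half above 10 with the replicate mean above 10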;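 also: wells of about 30 µL received 50 nL stock; many hits fall short of the cut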
Ecoli growth: E. coli growth inhibition; AID 1053175; 330,000 compounds, 0.21% hits; Escherichia coli growth, OD600, 23 h; hits give low values; OD600 absorbance (test concentration not listed);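 active = OD600 absorbance below the run mean of sample wells minus 3.6 SD, in any replicate, cut at about 0.56 in these data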;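 also: stock transfer was 300 nL into about 60 µL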
Beta apoptosis: beta cell apoptosis inhibition; INS-1E cytokine-induced death, ATP luminescence, 48 h; percent of positive-control rescue, neutral wells zero; protection from apoptosis, % (concentration not given with the values); 300,000 compounds, 0.8% hits; AID 435005;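 active = all replicates at 75% or more, or half of them and the mean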;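 also: 0% = cytokine-treated negative control wells and 100% = positive control rescue; higher means more ATP so stronger rescue from cytokine killing; wells of about 40 µL received 100 nL stock; the first replicate is given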
rRNA inh HTS OD600: second read-out of rRNA inh HTS, no call of its own (marks repeat the call); OD600 change, %; measured here: OD600 growth;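 optical density of the mix in the first replicate; 0 = DMSO median and -100 = no signal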
rRNA inh HTS RFP: also measured in rRNA inh HTS; calls as there; RFP signal change, %; measured here: RFP humanized mutant strains;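 first replicate; 0 = DMSO median and -100 = no signal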
Active calls of the source: *; i = inactive; · = not tested or not shown. An excerpt (hit frequency here may not be typical).

SMILES	T cruzi repl	MLL AF4-AF9 inh	FGF22 binding	rRNA inh HTS	rRNA inh HTS OD600	rRNA inh HTS RFP	UCH37 DUB inh	Bfl-1 A1 inh	Ecoli growth	Beta apoptosis
COC(=O)C(C)n1cnc2c(nnn2-c2ccc(OC)cc2)c1=O (centres undefined)	-5	·	·	·	·	·	4.9	-0.3	0.75	-7
COc1ccc(NC(=O)CN(C)C(=O)CSc2ccc(Br)cc2)cc1	·	1.7	i	-30*	-20*	-4.5*	-2.0	0.2	0.66	-12
COc1ccc(/C=C2\OC(=S)N(C)C2=O)cc1	3	6.7	i	7	7	0.3	-3.9	-0.5	0.69	-1
Cc1nnc(NC(=O)CSC2CCCCC2)s1	-13	4.5	i	0	-1	-3.9	4.2	0.0	0.76	-4
CCN(CC)S(=O)(=O)c1ccc(NC(=O)C(C)N(c2ccccc2)S(C)(=O)=O)cc1 (centres undefined)	10	·	·	·	·	·	5.0	0.3	0.78	2
CCOc1ccccc1N(C(=O)Nc1ccc(Cl)cc1)C1=NC(C)CS1 (centres undefined)	-13	0.9	i	-20	-21	-1.7	3.4	-0.2	0.73	-5
Cc1c(-c2ccccc2)nc2ccccc2c1C(=O)OCC(=O)Nc1ncc(C(F)(F)F)cc1Cl	8	·	·	·	·	·	-4.8	0.2	0.75	-5
Cc1ccc(NC(=O)CCN2C(=O)c3ccccc3C2=O)cc1	-3	-26	i	1	3	-0.9	2.5	0.4	0.61	2
COc1ccccc1OCCCCOc1ccccc1F	10	·	·	·	·	·	1.1	0.8	0.68	-2
O=C1CSc2ccc(C(=O)Nc3cccc(S(=O)(=O)Nc4ccc(Br)cc4)c3)cc2N1	-44	-0.3	i	-35	-66	1.4	4.9	-1.1	0.7	41
COc1ccccc1CNC(=O)c1ccncc1	-4	2.7	i	1	5	0.8	2.9	0.1	0.68	-1
Cc1cccc(-c2noc(C3CCCCC3)n2)c1	-8	·	·	·	·	·	3.6	-4.5	0.71	2
C=CCCCOc1ccc(C(=O)O)cc1	-4	·	·	·	·	·	-2.5	-2.2	0.73	-1
COC(=O)C1=C(C)N(CCc2ccccc2)C(=O)C1(NS(=O)(=O)c1ccc(NC(C)=O)cc1)C(F)(F)F (centres undefined)	9	7.2	i	-7	1	6.5	0.8	-0.6	0.69	-1
Cc1cccc(C(=O)NNC(=O)c2n[nH]c(=O)c3ccccc23)c1C	·	-3.8	i	4	11	-1.0	4.2	·	0.68	·
COc1ccc(-c2nc(CSCC(=O)NC3CCCC3)c(C)o2)cc1OC	3	-2.8	i	0	-2	2.9	1.5	0.0	0.64	5
COc1cccc2sc3cc(NCc4ccc(C)o4)ccc3c(=O)c12	·	·	i	-10	-19	-7.6	·	-2.7	·	1
COc1ccc(NC(=O)CSc2nc(C)cc(C)n2)c([N+](=O)[O-])c1	0	2.6	i	-19	-18	0.2	2.2	0.2	0.72	-10
CC(=O)Oc1ccc(/C=C/c2nc3ccccc3c(=O)o2)cc1	-15	-0.3	i	-1	2	3.0	-30	-6.6	0.7	-5
S=C(Nc1cccnc1)NC1CCCC1	-9	-4.0	i	·	·	·	6.4	-0.3	0.72	1
Fc1ccccc1CNc1ccc(Cl)cc1	22	8.3	i	0	3	-0.1	1.1	-0.4	0.6	-16
C/C(=N\O)c1cc(Cl)ccc1O	-8	3.2	i	2	7	-1.2	·	-0.1	·	-1
CCOC(=O)c1[nH]c(C)c(C(=O)OCc2c(C)noc2C)c1C	17	·	·	·	·	·	4.9	0.7	0.72	2
Cc1cc(C)n2nc(C(=O)OC(C)C(=O)c3cc(C)c(C)cc3C)nc2n1 (centres undefined)	-10	2.0	i	5	17	-1.7	0.3	0.7	0.62	·
CCOc1ccc2nc(N3CCCC(C(=O)NCC4CCCO4)C3)sc2c1 (centres undefined)	3	-33	i	-1	-9	-3.0	4.8	0.1	0.68	5
O=C(c1cnc2ccc3ccccc3c2c1)c1cc(F)ccc1O	7	-17	i	3	5	-0.3	2.4	-1.5	0.72	-4
Cn1nccc1C(=O)Nc1cccc(S(=O)(=O)N2CCOCC2)c1	-6	0.0	i	12	8	4.6	0.1	-0.1	0.73	·
CNc1nc(-c2ccccn2)nnc1-c1ccccc1	6	·	·	·	·	·	2.4	0.0	0.65	-4
O=[N+]([O-])c1cccnc1-n1cnc2ccccc21	-22	-0.6	i	1	-2	-1.2	0.7	1.2	0.69	4
O=C1CCCC2=C1C1(CCCCC1)N=C(Nc1nc3ccccc3o1)N2	20	·	·	·	·	·	-8.9	-0.5	0.71	4
CC1CCCC(NC(=O)CSc2cccc[n+]2[O-])C1C (centres undefined)	·	1.9	i	-1	1	0.8	1.0	0.4	0.66	-3
CC(=O)N1CCN(C(=O)c2ccc(NS(=O)(=O)c3ccc(Cl)c(Cl)c3)cc2)CC1	·	6.8	i	-4	-5	-3.8	3.5	·	0.69	·
COc1ccccc1NC(=O)CSc1nc2ccccc2c(=O)n1C	6	-1.8	i	3	2	0.6	3.9	0.4	0.67	·
O=C(O)CC/C(=C\c1ccccc1[N+](=O)[O-])c1nc2ccccc2s1	-14	0.0	i	-12	-8	-4.6	4.0	-1.3	0.72	-7
Cc1cc(C(=O)OCC(=O)NC2CCCC2)c2ccccc2n1	·	0.8	·	0	6	-1.3	-2.0	·	0.68	·
CC(C)CN(C(=O)CN1CCN(c2ccc([N+](=O)[O-])cc2)CC1)c1c(N)n(CC(C)C)c(=O)[nH]c1=O	0	0.3	·	15	12	3.4	0.7	0.2	0.71	0
Cc1cccc(C)c1NC(=O)Cn1nnc(-c2ccc(CN3CCC(C)CC3)cc2)n1	24	-0.4	i	6	8	5.1	6.2	0.0	0.68	19
COc1ccc(COC(=O)C2CC(=O)N(Cc3ccccc3)C2)cc1 (centres undefined)	·	-1.8	i	-3	2	-0.4	5.1	1.9	0.65	-1
CCN(C(=O)c1cc2ccccc2o1)C12CC3CC(CC(C3)C1)C2	23	·	·	·	·	·	-1.0	-0.2	0.66	10
COc1ccc(Cl)cc1S(=O)(=O)N1CCCC(C(=O)N2CCCC2)C1 (centres undefined)	14	0.4	i	-3	0	1.2	1.0	-0.2	0.67	1

Overlap with the part before: four entries; new compounds follow.
SMILES	T cruzi repl	MLL AF4-AF9 inh	FGF22 binding	rRNA inh HTS	rRNA inh HTS OD600	rRNA inh HTS RFP	UCH37 DUB inh	Bfl-1 A1 inh	Ecoli growth	Beta apoptosis
Cc1cccc(C)c1NC(=O)Cn1nnc(-c2ccc(CN3CCC(C)CC3)cc2)n1	24	-0.4	i	6	8	5.1	6.2	0.0	0.68	19
COc1ccc(COC(=O)C2CC(=O)N(Cc3ccccc3)C2)cc1 (centres undefined)	·	-1.8	i	-3	2	-0.4	5.1	1.9	0.65	-1
CCN(C(=O)c1cc2ccccc2o1)C12CC3CC(CC(C3)C1)C2	23	·	·	·	·	·	-1.0	-0.2	0.66	10
COc1ccc(Cl)cc1S(=O)(=O)N1CCCC(C(=O)N2CCCC2)C1 (centres undefined)	14	0.4	i	-3	0	1.2	1.0	-0.2	0.67	1
O=C(Nc1cccc(S(=O)(=O)N2CCCCC2)c1)c1ccc2c(=O)n3c(nc2c1)CCCCC3	7	·	·	·	·	·	1.5	0.2	0.74	1
Cc1ccccc1N1CCN(C(=O)CCN2C(=O)c3ccccc3C2=O)CC1	-24	·	·	·	·	·	4.2	-0.3	0.72	5
COc1ccc(C(=O)Nc2ccc(NC(=O)c3ccco3)cc2)cc1	-3	4.3	i	14	20	2.0	-6.9	-0.2	0.62	0
O=C(NCC1CCCO1)/C(=C/c1ccc(Cl)cc1)NC(=O)c1ccccc1 (centres undefined)	-16	1.2	i	·	·	·	-0.2	-0.1	0.71	-5
Cc1ccc2nc(C)cc(N3CCOCC3)c2c1	-5	·	·	·	·	·	1.5	-1.0	0.71	2
O=C(Nc1ccc(S(=O)(=O)Nc2ccccn2)cc1)c1cccc(Br)c1	19	-0.1	i	-11	-8	-3.9	0.5	-0.1	0.67	-9
CN(C)C(=S)NC1(C)CCS(=O)(=O)C1 (centres undefined)	-4	·	·	·	·	·	2.4	-0.9	0.79	0
CCOC(=O)N1CCC(NS(=O)(=O)c2ccc(NC(C)=O)c(Cl)c2)CC1	-6	-1.7	i	14	-4	-0.2	0.6	2.2	0.65	·
CC(Cl)C(=O)NNC(=O)CNS(=O)(=O)c1ccccc1 (centres undefined)	-3	-4.6	·	33	21	7.0	3.4	2.2	0.69	-7
CCCN1CCN(CCCNC(=O)CN2C(=O)C(CC)Oc3ccccc32)CC1 (centres undefined)	13	3.2	i	7	7	2.7	1.1	1.0	0.67	-6
COc1ccc(OC)c(S(=O)(=O)NCCCN2CCCC2=O)c1	-6	-8.5	i	10	6	2.9	1.5	-0.5	0.69	-4
CSC1=C(C#N)C2(CCCCC2)C(C(=O)Nc2ccccc2)=C(C)N1	·	-0.4	i	-22	-19	-4.1	3.6	·	0.65	·
Cc1ccc(S(=O)(=O)Nc2ccc3nc(N)sc3c2)cc1	-13	·	·	·	·	·	-1.8	0.8	0.74	32
Nc1nonc1-c1noc(N2CCOCC2)n1	·	·	·	·	·	·	4.4	-0.5	0.76	-6
NC(=O)NC(=O)C(c1ccccc1)N1CCN(S(=O)(=O)c2ccc(Br)s2)CC1 (centres undefined)	·	-1.1	i	5	8	-0.6	1.8	-0.3	0.72	-2
S=C(NC1CC1)N1CCc2ccccc2C1	-6	-3.7	i	9	6	-1.0	6.2	-0.7	0.67	-6
O=C1OC(C(=O)O)Cc2ccccc21 (centres undefined)	11	-58	i	23	9	-0.8	1.3	-0.3	0.59	·
C/C(=N\NC(=S)Nc1c(C)cccc1C)c1ccc(OC(F)F)cc1	49	-3.1	i	-6	-6	-0.6	·	0.3	·	-5
COc1ccccc1NC(=O)c1cc(S(=O)(=O)N2CCCCCC2)ccc1F	18	1.4	i	-15	-5	-3.2	0.5	-1.1	0.67	0
CCOC(=O)Cc1csc(SC(C)C(=O)Nc2ccc(NC(C)=O)cc2)n1 (centres undefined)	-16	·	·	·	·	·	2.3	-0.1	0.66	0
CC(C)CCN1CCN(CCCn2cccn2)CC1CCO (centres undefined)	7	0.4	i	13	13	1.1	-0.1	0.5	0.67	-2
O=S(=O)(NCC(c1ccco1)N1CCN(c2ccccc2F)CC1)c1ccccc1 (centres undefined)	-15	·	·	·	·	·	3.3	0.3	0.73	-10
CCCCN(C(=O)Cc1ccc(S(=O)(=O)N2CCOCC2)s1)c1ccccc1	29	3.4	i	-12	-18	4.9	-2.2	-1.2	0.62	1
N#C/C(=C\c1ccncc1)c1nc2ccccc2o1	-3	2.5	·	2	-2	11	-166	-0.3	0.71	·
CCCCOc1ccc(CNC(=O)NS(=O)(=O)c2ccc(OCC)cc2)cc1	-11	·	·	·	·	·	1.3	0.8	0.71	-11
CCN1CCN(c2cc(C)c3cc(NC(=S)N4CCC5(CC4)OCCO5)ccc3n2)CC1	36	-39	i	-3	-3	-2.2	0.9	0.0	0.7	-2
O=C(CC(=O)NCc1cccnc1)NCc1cccnc1	-3	·	·	·	·	·	0.9	0.4	0.79	-2
